Bead autofluor: counter-screen for toxin protease inhibitors: compound fluorescence; fluorescence intensity (test concentration not listed); AID 624483; 360,000 compounds, 3.1% hits; compound autofluorescence counterscreen, microsphere flow cytometry; active compounds read high;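 active = at least 3 SD above the mean of all compounds, about 16000 in these data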;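 note: 100 nL of 1 mM stock went into each well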
RN4220 kill: S. aureus RN4220 growth inhibition; inhibition, % (concentration not given with the values); OD600, 16 h; AID 1259311; 330,000 compounds, 0.33% hits;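 active = z-score of -3 or lower and OD600 up to 0.18 on both plates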;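 note: plate controls were untreated cells for no effect and reference antibiotic for full effect; stock transfer was 100 nL into about 80 µL; one replicate is shown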
BJeLR viability: BJeLR cell viability loss. BJeLR (HRASV12) viability, CellTiter-Glo ATP luminescence, 48 h; reference of the scale not given here. inhibition, % (no concentration beside the values). 300,000 compounds, 0.17% hits;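 active = replicate mean above 50%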;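 note: 50 nL library stock added to about 25 µL; numbers are from one replicate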
PrP UTR inh: suppresses PrP 5' UTR mRNA reporter expression; cell-based PrP 5' UTR mRNA reporter, plate reader; inhibition, % (test concentration not listed); 340,000 compounds, 0.35% hits; AID 488862;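 active = every replicate at 50% or more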;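 note: 0 = median of the neutral control wells; tested in H4 reporter cells; numbers are from one replicate; inactives centre near -14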
Mtb hypoxia inh: Mtb hypoxia fluorescent reporter inhibition | M. tuberculosis hypoxia-regulated fluorescent reporter, fluorescence | fluorescence inhibition, % (test concentration not listed) | 300,000 compounds, 0.1% hits | AID 1159583;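 active = 35 to 45% if threefold the growth effect, above 45% if 1.5-fold the growth effect; inactive = the rest, general growth blockers included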;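 note: wells of about 50 µL received 100 nL stock; 0% = vehicle wells and 100% = reference inhibitor wells; whole bacteria with a GFP reporter of the hypoxia response; strong numbers were not always called active; many hits fall short of the cut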
Sa ugtP lethal: growth inhibition of S. aureus ugtP deletion strain; S. aureus RN4220 ugtP deletion, OD600 growth, 16 h; some inactives read as strong as hits; growth inhibition, % (concentration not given with the values); 330,000 compounds, 0.54% hits; AID 1259309;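 active = z-score under -3 and OD600 up to 0.15 on both plates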;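 note: plate controls were untreated wells for no effect and antibiotic for full effect; wells of about 80 µL received 100 nL stock; the first replicate is given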
Mtb hypoxia inh growth: second read-out of Mtb hypoxia inh, no call of its own (marks repeat the call); growth inhibition, %; measured here: M. tuberculosis growth (absorbance);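 0% = vehicle and 100% = reference antibiotic; read after six days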
* hit, by the source's call; . = not tested or not shown; & = joins results of further samples.

Sequence of screens: Bead autofluor	RN4220 kill	BJeLR viability	PrP UTR inh	Mtb hypoxia inh	Mtb hypoxia inh growth	Sa ugtP lethal
> C/C(=N\NC(=O)c1c(Br)c(C)nn1C)c1cccc(NC(=O)C2CCC2)c1
    4621	.	-5	-5	.	.	.
> O=S(=O)(Nc1ccc(N2CCCCC2)cc1)c1cccc2cccnc12
    4178	0.1	-3	-2	3	11	-2
> O=C(N/N=C/c1cccc([N+](=O)[O-])c1)c1ccc2nc[nH]c2c1
    4722	.	6	0	.	.	.
> Cc1cccc(N2CC(C)Cn3c2nc2c3c(=O)n(CC(=O)OCc3ccccc3)c(=O)n2C)c1 (configuration not stated)
    2782	5.2	-3	-10	6	8	-3
> Cc1cccc(N(Cc2ccccc2)C(=O)CCl)c1
    4171	3.9	0	2	36*	23*	6
> Cc1nc2ccccc2n1C(=O)c1ccc(Cl)cc1[N+](=O)[O-]
    2174	7.5	9	-7	2	3	6
> CCS(=O)(=O)c1ccc2oc(SCC(=O)NCCC3=CCCCC3)nc2c1
    3582	1.2	-2	5	.	.	-4
> CCOC(=O)C1CCN(C(=O)c2cc3ccc(OC)cc3[nH]2)CC1
    3622	0.9	6	-36	-5	4	13
> Cc1cc(S(=O)(=O)N2CCOCC2)ccc1NC(=O)c1ccc(F)cc1
    3129	-4.4	2	-12	-4	2	0
> CN1CCc2ccccc2CC1=O
    7735	4.2	-1	-12	8	6	0
> CCOC(=O)C(N)CSC1CC(=O)N(CCc2ccccc2)C1=O (configuration not stated)
    3547	1.3	6	12	-2	-1	2
> CCCCCOc1ccc(/C(C)=N/NC2=NCCN2)cc1
    4229	.	-3	-3	.	.	.
> N=c1nc(SCCC(=O)O)ss1
    2890	.	-3	20	.	.	.
> CC1CCN(CCCCOc2ccccc2[N+](=O)[O-])CC1
    12002	-2.1	9	-32	0	2	-1
> O=S(=O)(c1ccc(OC(F)(F)F)cc1)N1CCCC(N2CCOCC2)C1 (configuration not stated)
    3510	5.9	0	-22	9	14	14
> COC(=O)C1CC2=C(CCCC2=O)NC1=O (configuration not stated)
    3358	2.9	.	1	-4	3	-3
> CN(C)CCCNc1ncnc2sc(-c3ccccc3)cc12
    4390	2.4	11	-9	12	12	7
> Cc1cc(C)nc(SCC(=O)NNC(=O)c2cccs2)n1
    3478	8.2	5	-2	-16	-2	5
> O=C(O)CCc1ccc(-c2ccc(F)cc2)n1CC1CCCO1 (configuration not stated)
    9732	4.5	-1	-15	4	3	4
> COc1cc(OC)c(OC)cc1CN1CCCC(C(=O)N2CCCCC2)C1 (configuration not stated)
    15983	4.0	-14	-14	1	9	6
> Cc1cccc(Nc2ccncc2S(N)(=O)=O)c1
    6059	4.7	-1	.	12	-3	4
> CCCN=C1N(C)C[C@@H]2[C@@H]3C(=O)N(Cc4ccccc4)C(=O)[C@@H]3[C@](C)(C(=O)OC)N12
    4116	0.8	.	-19	-1	1	5
> COc1ccc(C(C)NC(=O)C2CCCC2)cc1OC (configuration not stated)
    3173	4.4	26	-28	1	-4	9
> CCN(CC)S(=O)(=O)c1cccc(C(=O)N/N=C2\CCCC(=O)C2)c1
    3145	.	-9	-17	.	.	.
> O=C(O)Cn1ncc2ccccc2c1=O
    4285	-1.4	-3	-45	-4	4	2
> CCC(CC)NC(=O)Nc1ccccc1C(F)(F)F
    4551	0.1	3	-16	15	4	0
> COc1ccc(C(=O)C2CCN(CC(=O)Nc3ccc(OC)cc3OC)CC2)cc1
    6183	-0.6	5	-5	6	0	-1
> CCCC(=O)Nc1ccc(Cl)c(NC(=O)c2cccc(OC)c2)c1
    3064	6.2	-2	-11	5	-1	0
> Cc1ccc(Cn2ccc(NC(=O)c3cc4nc(-c5ccco5)cc(C(F)(F)F)n4n3)n2)cc1
    3701	0.7	-1	-16	-2	-1	-20
> CCOc1ccc(CC2c3cc(OCC)c(OCC)cc3CCN2C(=O)CN2CCN(C)CC2)cc1OCC (configuration not stated)
    3816	-0.2	-7	-1&-5	4	10	-1
> O=C(N/N=C/c1ccc2c(c1)OCO2)c1cc(-c2ccc(F)cc2)nc2ccccc12
    2194	.	-4	-18	.	.	.
> Oc1cccc(CCc2ccccn2)c1
    3922	0.0	.	-38	9	1	3
> NC(=O)CC[C@H](NC(=O)[C@H](Cc1ccccc1)n1c(=O)[nH]c2ccccc2c1=O)C(=O)N1CCC[C@H]1C(=O)O
    5353	1.4	10	-9	.	.	-15
> O=C(Cc1ccccc1)Nc1ccc(NC(=O)c2ccccc2)c(Cl)c1
    3977	10	12	-23	-9	-6	3
> CCOC(=O)c1sc(NC(=O)c2ccccc2F)c(C(N)=O)c1C
    7518	8.0	-11	0	6	13	13
> CCOC(=O)N1CCC2(CC1)C(C(=O)C13CC4CC(CC(C4)C1)C3)C2(C#N)C#N (configuration not stated)
    5257	-0.4	0	-23	1	5	-7
> CC(OC(=O)c1cccc(S(=O)(=O)N2CCCCC2)c1)C(=O)NC1CCCCC1C (configuration not stated)
    5665	4.1	-2	-13	7	-4	-2
> Cc1ccc(NS(=O)(=O)c2cccc3cccnc23)cc1Cl
    2823	-3.5	7	-8	17	6	1
> CC1=C(C(=O)Nc2ccccc2)C(c2ccccc2)N2C(=O)CSC2=N1 (configuration not stated)
    3689	-3.6	10	-14	-3	-1	-7
> O=C(C=C(C(=O)c1ccccc1)c1ccccc1)c1ccccc1
    4055	3.5	.	-26	24	15	20
> Cc1ccc(C)c(NC(=O)C(=O)NCCCN2CCOCC2)c1
    2686	0.5	-5	-21	-11	9	0
> Cc1cc(NC(=O)C(Cl)(Cl)Cl)no1
    5854	1.9	-12	-25	-1	-2	4
> COc1ccccc1NC(=O)CC(=O)CSc1nnc(-c2ccc(C)cc2)n1C
    4085	5.9	5	-14	0	7	-9
> CCN(CC)S(=O)(=O)c1ccc(O)c(C(=O)OCC(=O)N2CCCC2)c1
    3842	0.9	-8	-6	9	11	4
> CC(C)Cn1c(CN(C)Cc2ccccc2)nc2c1c(=O)n(C)c(=O)n2C
    4957	4.2	2	28	5	0	3
> O=C(CCN1C(=O)/C(=C/C=C/c2ccccc2)SC1=S)Nc1nc2ccccc2s1
    2563	.	-3	-6	.	.	.
> Cc1ccc(S(=O)(=O)N2CC=C(C(=O)NCc3ccc(F)cc3)CC2)cc1
    5306	-0.2	-2	-1	.	.	6
> Cc1cc(NS(=O)(=O)c2ccc(NC(=O)NC(C)(C(F)(F)F)C(F)(F)F)cc2)no1
    10992	4.3	-14	-19	13	15	5
> O=C(CSc1ccccc1C(=O)O)NC12CC3CC(CC(C3)C1)C2
    4856	4.4	3	-24	9	-3	1
> COc1ccc(OC)c(NC(=O)CSc2nnc(-c3cccnc3)s2)c1
    5264	4.0	-3	-7	4	6	3
> CCN(CC)c1ccc(C(=O)OCc2cc(=O)oc3cc(O)ccc23)cc1
    3628	5.7	3	-32	.	.	2
> N/C(=N/OS(=O)(=O)c1ccc([N+](=O)[O-])cc1)c1ccncc1
    3443	.	-7	2	.	.	.
> COc1cc(C=C2C(=O)c3ccccc3C2=O)ccc1O
    3267	6.9	1	-6	-2	4	0
> COc1ccccc1N1C(=O)NC(=O)/C(=C\c2cnn(-c3ccccc3)c2)C1=O
    2762	4.1	-4	-8	6	6	7
> COC(=O)C1=C(Nc2cc(Cl)cc(Cl)c2)CSC1
    3099	2.4	7	-11	11	-7	17
> CCc1nnc(NC(=O)CSc2nnc(Cc3cccn3C)n2CCOC)s1
    5962	-15	-4	-20	8	8	-1
> CCOC(=O)c1c(-c2ccccc2)csc1NC(=O)COc1ccc2c(C)cc(=O)oc2c1
    2426	5.8	-13	-10	4	7	2
> CC1CCCCC1NC(=O)C1CCN(S(=O)(=O)N2CCC3(CC2)OCCO3)CC1 (configuration not stated)
    9273	2.9	-2	-11	5	1	13
> CCN1C=C(C(=O)OC)C(c2cccc(OC)c2OC)C(C(=O)OC)=C1
    3687	-0.1	-1	-22	5	5	4
> CC(=O)C1=C(O)C(=O)N(C2CCCCC2)C1c1ccccc1 (configuration not stated)
    3120	5.0	-11	6	4	9	1

Continuation:
Sequence of screens: Bead autofluor	RN4220 kill	BJeLR viability	PrP UTR inh	Mtb hypoxia inh	Mtb hypoxia inh growth	Sa ugtP lethal
> CN(C)CCN1C(=O)C(O)=C(C(=O)c2cc3ccccc3o2)C1c1ccc(N(C)C)cc1 (configuration not stated)
    6029	7.1	3	-14	.	.	-5
> O=C1CN(Cc2cc(=O)oc3cc4c(cc23)CCC4)CCN1
    2564	4.9	-3	-12	15	7	2
> Cc1ccccc1NC(=S)N(CCN(C)C)C(C)c1ccco1 (configuration not stated)
    2454	3.1	-5	-6	4	6	5
> CCOC(=S)SCC(=O)N1CCc2cc(OC)c(OC)cc2C1C1C(=O)CC(C)(C)CC1=O (configuration not stated)
    2480	-0.2	1	-8	5	7	16
> CCOc1ccc(C=O)cc1CN1CCCCC1
    3870	-3.2	-3	-1	.	.	8
> O=c1c(Br)c(N2CCOCC2)cnn1-c1ccccc1
    4565	0.8	-22	-46	3	2	0
> CN(CC(=O)NCCc1ccccc1)S(=O)(=O)c1cccs1
    3639	-2.7	2	-10	.	.	3
> CC(C)CNc1nc2c(c(=O)n(C)c(=O)n2C)n1Cc1cccc(Br)c1
    2701	0.9	0	-15	.	.	15
> C/C(Cl)=C\Cn1c(NCCCn2ccnc2)nc2c1c(=O)n(C)c(=O)n2C
    .	-10	-4	-8	4	6	-6
> COc1ccc(-c2cc(C(=O)NCc3cccs3)no2)cc1
    4411	0.1	-5	-62	9	3	3
> Cc1c(C(=O)N2CCCCC2)c(S(=O)(=O)Nc2cccc(Br)c2)c(C)n1C
    5743	1.2	-4	-3	8	11	1
> O=C(N/N=C1\NC(=O)C(CO)(CO)S1)c1ccccc1
    5348	5.5	0	-14	15	5	8
> CC(CC(=O)Nc1ccc2c(c1)OCCO2)=NNC(=O)Cc1ccc(Cl)cc1
    .	3.9	.	.	8	6	20
> C(=N\n1c2ccccc2c2ccccc21)/c1ccccc1
    2495	.	2	-65	.	.	.
> Cc1ccc2nc(-c3cccc(-c4cccc(Cl)c4)c3)c(NCc3ccccc3)n2c1
    4106	.	6	-55	.	.	.
> Oc1ccc(-c2cn3c(n2)SCC3)cc1O
    5352	12	-3	-24	6	-10	7
> O=C(COc1ccc2ccccc2c1Br)NCc1ccccn1
    4167	4.3	1	-15	17	15	-5
> CC(NC(=O)C1CCCN(C(=O)N(C)C)C1)c1ccccc1 (configuration not stated)
    20508*	3.0	3	-9	-3	5	5
> O=C(Cn1cc(/C=N/NC(=O)c2ccccc2Br)c2ccccc21)Nc1ccc(F)cc1
    2327	.	11	-9	.	.	.
> Cc1csc(NC(=O)c2cccc([N+](=O)[O-])c2C(=O)O)n1
    4268	3.0	-5	-29	-8	-5	1

Three entries from above, ordered by molar mass, largest number first:
Sequence of screens: Bead autofluor	RN4220 kill	BJeLR viability	PrP UTR inh	Mtb hypoxia inh	Mtb hypoxia inh growth	Sa ugtP lethal
> O=C(Cn1cc(/C=N/NC(=O)c2ccccc2Br)c2ccccc21)Nc1ccc(F)cc1
    2327	.	11	-9	.	.	.
> O=c1c(Br)c(N2CCOCC2)cnn1-c1ccccc1
    4565	0.8	-22	-46	3	2	0
> CCOc1ccc(C=O)cc1CN1CCCCC1
    3870	-3.2	-3	-1	.	.	8

Further records
Sequence of screens: Bead autofluor	RN4220 kill	BJeLR viability	PrP UTR inh	Mtb hypoxia inh	Mtb hypoxia inh growth	Sa ugtP lethal
> CCOc1ccc(NC(=O)CNc2ccc(C)cc2Cl)cc1
    10033	-1.7	4	-20	8	0	17
> CN(C)c1nc(OCC(=O)NC(C)(C)C)nc(N(C)C)n1
    4105	-1.2	0	-18	.	.	-1
> Cc1cc(C)nc(Sc2nc(C)nc3c2oc2ccccc23)n1
    2729	-1.0	-6	-22	.	.	-5
> COc1ccc(NC(=O)Nc2cccc3c2OC(CN(C)CC2CCCCC2)C(C)CN(C(C)CO)C3=O)cc1 (configuration not stated)
    .	6.2	.	.	4	7	4
> O=C(CSc1nnnn1-c1ccc(F)cc1)NCc1cccs1
    4320	11	.	-35	-2	11	3
> COc1ccc(COC(=O)C2=C(C)NC(=O)NC2c2ccc(OC)c(OC)c2)cc1 (configuration not stated)
    .	0.5	2	-1	7	-1	7
> Cc1ccc(C)c(N2C(=O)C3C4C=CC(CC4)C3C2=O)c1 (configuration not stated)
    4098	4.3	-3	-27	6	1	2
> CCCCNC(=O)C1c2cc(OC)c(OC)cc2C(=O)N(C)C1c1ccc(OC)cc1 (configuration not stated)
    6887	-0.2	-10	-17	11	2	3
> Cc1ccc2oc(=O)n(CC(=O)OCCC(C)C)c2c1
    3320	5.8	2	-11	9	2	-2

Bioassay records from PubChem BioAssay.
